# Beta apoptosis: inhibitors of cytokine-induced beta cell apoptosis, primary screen, luminescence. INS-1E cytokine-induced death, ATP luminescence, 48 h; percent of positive-control rescue, neutral wells zero. protection from apoptosis, % (concentration not given with the values). actives 0.8% (n = 300,000);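 active = all replicates at 75% or more, or half of them and the mean; inconclusive = half reach 75% but not the mean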;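 also: 0% = cytokine-treated negative control wells and 100% = positive control rescue; higher means more ATP so stronger rescue from cytokine killing; wells of about 40 µL received 100 nL stock; the first replicate is given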
# UCH37 DUB inh: inhibitors of human UCH37 deubiquitinase, primary screen, biochemical, Ub-AMC cleavage, fluorescence; purified proteasome/UCH37; Ubiquitin carboxyl-terminal hydrolase isozyme L5 (Homo sapiens), Q9Y5K5; inhibition, % (test concentration not listed); actives 0.33% (n = 330,000);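 active = mean of two replicates above 20%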;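 also: 0% = compound-free wells with enzyme and 100% = wells lacking proteasome; stock transfer was 100 nL into about 20 µL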
# Target sequence (Q9Y5K5 whole entry, looked up): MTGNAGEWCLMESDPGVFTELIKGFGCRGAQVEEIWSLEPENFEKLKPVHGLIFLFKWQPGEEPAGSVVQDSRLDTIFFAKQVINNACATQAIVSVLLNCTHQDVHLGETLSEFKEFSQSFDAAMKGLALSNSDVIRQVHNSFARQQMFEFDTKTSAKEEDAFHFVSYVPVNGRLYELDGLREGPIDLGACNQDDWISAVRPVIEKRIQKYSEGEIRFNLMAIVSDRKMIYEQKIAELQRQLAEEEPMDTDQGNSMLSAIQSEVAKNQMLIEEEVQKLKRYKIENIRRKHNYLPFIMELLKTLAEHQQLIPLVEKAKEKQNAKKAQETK
#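 Test system – human UCH37 enzyme supplied as purified proteasome complex · Incubation – 30 min preincubation with enzyme, 25 min cleavage at room temperature · Detection – AMC fluorescence from Ub-AMC cleavage, excitation 355 nm, emission 460 nm · Benchmarks – no-proteasome wells (full inhibition) and compound-free wells (no inhibition)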
# T cruzi repl: inhibitors of intracellular T. cruzi growth, primary screen, luminescence, NIH3T3 host cells; T. cruzi beta-gal in NIH3T3, 90 h; inhibition, % (concentration not given with the values); actives 1.4% (n = 300,000);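 active = mean inhibition across valid replicates above about 55%, limit read from the data; inconclusive = mean below that limit but half or more replicates reach it; inactive = mean below it, under half of replicates reach it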;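 also: signal also drops with host cell toxicity which is not excluded here; 0% = plate median of DMSO wells and 100% = zero luminescence signal; higher percent means less beta-gal luminescence so fewer parasites; stock transfer was 50 nL into about 50 µL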
# A1 inh: caspase 3/7 activation in MEF A1-2A-BIM cells, primary screen, A1 inhibitor project, cell-based, luminescence, HTS; Caspase-Glo 3/7 luminescence, 3 h; percent of clofoctol response, vehicle zero; caspase activation, % (no concentration beside the values); actives 0.066% (n = 330,000); AID 2462, 2010;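 active = over half of replicate activation scores above 10%, or exactly half above 10 with the replicate mean above 10; inconclusive = replicate mean below 10 yet half the replicates above 10; inactive = over half of replicates below 10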;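 also: wells of about 30 µL received 50 nL stock; many hits fall short of the cut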
# Calb FLC: C. albicans growth inhibition with fluconazole, primary screen, CaCi-2 strain, Alamar Blue fluorescence; C. albicans CaCi-2 (fluconazole-resistant clinical isolate) + fluconazole, 48 h; growth inhibition, % (concentration not given with the values); actives 0.57% (n = 300,000); AID 1979, 2009;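 active = most replicates above 75%; inconclusive = exactly half above 75%; inactive = most below 75%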;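 also: all wells also contain fluconazole at 8 µg/ml as a sub-toxic cotreatment; 0% = median of DMSO wells and 100% = median of geldanamycin control wells; wells of about 8 µL received 7.5 nL stock; the first replicate is given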
# Beta2AR agonist: beta2AR agonists driving receptor internalization, primary screen, cell-based, FAP fluorogen, flow cytometry | actives 0.43% (n = 340,000) | Am2.2-beta2AR cells; reference of the scale not given here | response, % (concentration not given with the values);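 active = response above a set limit, near 3 SD of response in nonfluorescent compounds, cut at about 42% in these data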;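 also: stock transfer was 100 nL into about 11 µL; a reference agonist was the positive control; negative values mostly stem from fluorescent compounds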
# Target sequence (P07550 whole entry, looked up): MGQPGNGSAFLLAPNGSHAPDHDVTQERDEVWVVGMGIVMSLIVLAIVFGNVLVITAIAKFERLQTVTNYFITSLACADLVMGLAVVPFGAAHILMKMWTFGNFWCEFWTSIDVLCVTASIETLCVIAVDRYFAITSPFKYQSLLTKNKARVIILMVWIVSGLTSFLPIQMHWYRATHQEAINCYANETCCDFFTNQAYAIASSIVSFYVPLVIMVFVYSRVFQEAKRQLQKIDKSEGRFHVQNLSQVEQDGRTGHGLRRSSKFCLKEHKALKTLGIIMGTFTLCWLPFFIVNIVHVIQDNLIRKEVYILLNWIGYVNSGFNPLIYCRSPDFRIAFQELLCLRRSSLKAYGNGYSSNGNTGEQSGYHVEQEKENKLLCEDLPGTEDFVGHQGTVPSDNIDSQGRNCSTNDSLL
# RanGTP-Imp inh: inhibitors of RanGTP-importin-beta interaction, primary screen, biochemical, FRET, CFP-Ran, YFP-importin-beta, homogeneous; actives 1.1% (n = 300,000); Ran GTPase (GTP-bound) - importin-beta complex; cell-free CFP-Ran/YFP-importin-beta FRET ratio; inhibition, % (no concentration beside the values); AID 2216, 2009;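 active = most replicates above 15%; inconclusive = exactly half above 15%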;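 also: 0% = DMSO wells and 100% = Ran loaded with GDP instead of GTP; wells of about 40 µL received 100 nL stock; the first replicate is given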
# LANA-H2B inh: blockers of LANA interaction with H2A/H2B – biochemical, FP readout, HTS, primary screen; actives 0.6% (n = 320,000); inhibition, % (concentration not given with the values); AID 2629, 2010; cell-free LANA-H2A/H2B peptide, fluorescence polarization; in the data active = inhibition mostly above about 10%, no sharp cut-off; inactive = mostly below about 6.7%;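 also: stock transfer was 7.5 nL into about 10 µL; 0% = median of vehicle wells and 100% = median of positive control wells; one replicate is shown; the record names a cut of 25% in any replicate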
# An asterisk follows results filed as active; ? = inconclusive; nt = not tested or not shown.
SMILES,Beta apoptosis,UCH37 DUB inh,T cruzi repl,A1 inh,Calb FLC,Beta2AR agonist,RanGTP-Imp inh,LANA-H2B inh
Fc1ccc(C2CCCCN2Cc2nc(CC3CC3)no2)cc1 (configuration not stated),-0.2,0.9,0.3,1.2,-1.6,-2.7,-1.9,-1.7
Cc1cc(N2CCN(C3CCCCC3)CC2)nc2cccc(O)c12,-2.5,-0.7,2.8,0.3,-1.6,2.1,-3.5,-3.4
CCCCn1c(N)c(N(CC(C)C)C(=O)C2CCCN(C(=O)c3ccc(Cl)cc3)C2)c(=O)[nH]c1=O (configuration not stated),nt,1.8,6.2,0.3,3.4,-5.0,0.4,-0.1
COc1ccc(Cn2ccnc2SCC(=O)Nc2ccccc2OC)cc1,-4.1,3.1,-3.1,-0.5,-2.0,-3.6,0.5,-11.3
CCc1cc(C(=O)Nc2cc(S(=O)(=O)N(C)C)ccc2C)sc1C,-4.1,2.6,0.8,-0.4,1.6,11.8,4.6,-4.2
CCC(C(=O)NC1CCCC1)N(C(=O)c1snc(C(N)=O)c1N)c1ccc(OC)cc1 (configuration not stated),1.3,nt,8.1,-0.2,4.8,-6.2,1.5,1.3
COc1ccc2ccn(S(=O)(=O)c3ccccc3)c2c1,-7.3,1.0,7.8,2.8,19.5,-3.0,2.6,-0.3
NC(=O)COc1ccc(NS(=O)(=O)Cc2ccccc2)cc1,1.8,4.8,-7.2,-0.1,60.2,1.4,3.4,1.5
O=C(COC(=O)c1cccc(S(=O)(=O)NCc2ccccc2)c1)NC1CC1,-4.3,0.8,nt,0.4,nt,-0.5,nt,1.4
O=C(CCS(=O)(=O)c1ccc(Br)cc1)N1CCN(c2ccc(Cl)cc2)CC1,11.6,0.1,22.1,-0.2,2.2,-0.5,3.3,-3.8
Cc1cc(N2CCCC2)c(F)cc1/C=C\[N+](=O)[O-],nt,1.8,12.7,nt,2.2,19.1,-1.4,nt
Cc1ccc(C2=NNC3(CCOC(C)(C)C3)S2)cc1 (configuration not stated),8.6,-0.7,-26.0,-0.6,95.5*,-2.3,?,0.4
O=C(Oc1c(-c2ccccc2)c(=O)n2c3c(cccc13)CC2)c1ccco1,-4.0,2.9,5.8,0.2,4.4,-8.1,-1.5,-0.6
COc1ccc(S(=O)(=O)N2CCCC(C(=O)NC3CC3)C2)cc1OC (configuration not stated),nt,7.1,-1.6,0.1,0.6,-4.4,0.3,5.5
CCOCCCNC(=S)N1CCN(CC)CC1,-2.5,1.9,-5.7,0.9,-15.0,12.0,5.5,2.6
Cc1cc(C(=O)CSc2nnc(N)s2)c(C)n1-c1c(C)n(C)n(-c2ccccc2)c1=O,-4.9,3.2,3.7,0.6,-8.0,-1.1,4.4,4.8
Cc1ccc(S(=O)(=O)NCCCN2CCOCC2)c(C)c1,-11.4,1.5,5.3,1.7,-5.7,2.9,1.8,4.0
C=COCCNC(=S)Nc1cccc(Cl)c1,-4.1,4.7,-12.8,-0.1,-1.3,-5.6,4.4,0.4
O=C(c1cc2ccccc2c(=O)o1)N1CCCCCC1,-1.4,0.9,-10.0,-0.9,-7.3,0.1,3.3,-3.7
O=c1c2cc(NC(=S)NC3CCCCC3)ccc2nc2n1CCCCC2,3.9,-0.5,6.9,0.4,20.9,-12.4,-5.1,-489.3
CC(NC(=O)Cn1ncc(Cl)c(Cl)c1=O)C12CC3CC(CC(C3)C1)C2 (configuration not stated),-1.4,1.8,32.2,0.2,-17.7,112.3*,6.6,3.8
O=C(NC(=S)Nc1ccc(S(=O)(=O)Nc2ccccc2)cc1)C1CC1,-2.1,7.1,6.5,1.0,24.5,-8.3,nt,-3.8
Cc1ccc(C)c(S(=O)(=O)N2CCN(C(=O)CCNS(=O)(=O)c3ccc(C)c(C)c3)CC2)c1,2.5,nt,11.0,-1.0,2.2,3.5,4.1,-4.3
COc1cccc(NS(=O)(=O)c2ccc3[nH]cc(C(=O)NCCC(C)C)c(=O)c3c2)c1,-2.1,-1.2,-4.4,0.9,-1.5,-8.7,-1.2,5.1
Cc1ccc(C)c(N(CC(=O)NCc2ccccc2)C(=O)c2csnn2)c1,-13.7,0.0,-0.7,0.7,6.0,0.3,0.9,1.3
Oc1ccc(C2=NNC(=NCc3ccc4c(c3)OCO4)SC2)c(O)c1,-1.0,0.5,0.5,1.2,-0.7,-4.9,-1.2,5.8
Cc1cccc(N2CCN(C(=S)c3ccccc3)CC2)c1,-0.5,2.1,-3.1,-0.5,-20.3,-8.5,nt,2.7
Cc1ccc2occ(/C=N/O)c(=O)c2c1,1.8,nt,30.7,-1.8,-1.5,-2.9,2.4,1.1
COc1ccc(CCNC(=O)c2c(N)no[n+]2[O-])cc1OC,nt,1.4,-23.2,0.0,13.0,1.9,6.4,5.7
O=C(NCc1ccco1)C(=O)NCC1OCCCN1S(=O)(=O)c1ccc(Cl)cc1 (configuration not stated),3.7,1.6,-17.3,0.7,12.9,0.0,-1.6,-0.5
Cc1[nH][nH]c(=O)c1N=Nc1ccc(Cl)cc1,-4.3,8.2,-4.5,-4.4,2.8,-7.1,-3.2,-1.1
COc1ccc(C(=O)NNC2=NC(C)(C)Cc3cc(C)c(C)cc32)cc1,3.4,2.1,7.4,-0.5,6.5,6.2,-1.1,-1.3
COC(=O)c1c(NC(=O)c2ccco2)sc2c1CCN(C(C)=O)C2,nt,-9.9,0.6,0.5,3.4,3.8,?,-1.7
Cc1cc(N)ccc1N=Nc1c(C)n(C)n(-c2ccccc2)c1=O,2.0,13.6,7.1,0.4,0.1,-6.9,-0.9,-0.3
COc1ccc(CC(=O)O/N=C(\N)c2ccc(C)cc2)cc1,nt,1.5,-14.4,-1.8,-1.1,3.4,4.1,2.4
CCCCC(=O)Nc1cc(OC)c(NC(=O)C2CCCCC2)cc1OC,4.0,1.3,42.6,0.4,-24.4,-6.6,-3.6,-2.2
C=CCn1c(N)c(C(=O)Nc2ccccc2)c2nc3ccccc3nc21,0.2,-4.2,?,0.4,2.9,-0.3,17.8*,0.6
O=C1C(=O)N(CCS(=O)(=O)c2ccccc2)c2ccc(Cl)cc21,-8.0,nt,12.2,0.6,-0.8,10.8,39.0*,-2.8
O=[N+]([O-])c1ccccc1/C=C/C=N/n1c(-c2ccccc2)n[nH]c1=S,0.7,nt,-6.4,0.4,-5.2,6.9,6.7,-0.4
COc1cccc(CNC(=O)CSc2ccc(-c3cccs3)nn2)c1,-0.9,4.6,-6.6,0.2,-3.8,1.1,-0.5,6.1
COc1ccccc1CC(=O)N1CCN(S(=O)(=O)c2ccccc2)CC1,-3.3,-0.2,9.9,-0.3,0.9,-6.0,4.0,2.0
CC(C)CN(CC(C)C)C(=O)COn1nnc2ccc(S(=O)(=O)N3CCOCC3)cc21,0.7,1.2,nt,-0.1,nt,-3.0,nt,nt
CC(=O)c1cccc(OCCCOc2cccc3cccnc23)c1,-5.6,0.2,-4.8,-0.5,-26.0,-10.4,-3.3,6.2
O=C(C1CCC1)N1CCC(c2nc3c(nnn3Cc3c(F)cccc3Cl)c(=O)[nH]2)CC1,nt,1.6,nt,0.0,nt,11.5,nt,-0.6
CSC1=NCCN1S(=O)(=O)c1ccc2ccccc2c1,-0.5,0.5,-12.8,1.3,?,0.1,-3.2,3.6
Cc1ccc(Nc2cc(C)nc3c(C)ccc([N+](=O)[O-])c23)cc1,6.9,42.3*,36.6,0.6,-25.0,5.9,3.1,-6.9
Cc1cc(C(=O)Nc2cccc(C(=O)O)c2)c(C)o1,-14.1,2.6,-21.4,-9.1,24.6,4.5,2.3,2.9
O=C(c1ccccc1F)N(Cc1cccnc1)Cc1cc2cc3c(cc2[nH]c1=O)OCCO3,-2.5,-113.9,2.3,1.5,14.1,4.5,6.4,-2.7
Cc1c(NC(=O)COC(=O)C23CC4CC(CC(Br)(C4)C2)C3)c(=O)n(-c2ccccc2)n1C,-2.6,-0.2,-31.0,0.8,3.1,-2.6,1.1,-2.0
CC1=C(C(=O)NCc2ccco2)C2(CCC(C)CC2)OC1=O (configuration not stated),-3.1,2.4,-4.0,-0.1,-2.0,6.2,0.7,-4.3
CCN(CC)c1ccc(NC(=O)CSc2nc(C3CC3)nc3ccccc23)cc1C,7.2,2.6,15.2,-0.2,-7.9,-11.8,-2.9,-1.1
CCOC(=O)c1cnc(SC)nc1Nc1cccc2ccccc12,nt,5.4,-4.7,-1.0,2.0,0.5,5.2,-0.3
CC(C)NC(=O)NCCCCCCS(C)=O (configuration not stated),nt,0.9,-8.1,0.8,3.0,-2.1,?,3.0
Cc1cc(-c2ccccc2)nc(SC(C(=O)O)c2ccccc2)n1 (configuration not stated),-1.8,-1.2,1.7,1.7,-2.1,5.2,3.1,-4.0
CCCNC(=O)N1CCN(S(=O)(=O)c2ccc3c(c2)OCCO3)CC1,-7.4,2.3,nt,1.3,nt,1.4,nt,2.0
CCCCOC(=O)Cn1c(-c2ccccc2)nc2ccccc2c1=O,-4.8,4.5,-10.7,0.3,-2.8,-0.8,2.7,1.4
C/C(=N/Nc1ccc(Cl)cc1)c1cnnc(-c2ccccc2)n1,3.6,nt,-0.3,-0.6,0.9,2.8,-4.2,-0.8
CCN(CCn1cccn1)C(=O)CC1C(=O)NCCN1CCc1ccccc1 (configuration not stated),-5.6,-2.1,10.3,-0.9,-10.8,9.8,-0.1,-1.6
COc1ccc(Cl)cc1C(=O)NNC(=S)NC(=O)c1cc(-c2ccccc2)nc2ccccc12,8.6,6.8,0.5,1.2,21.9,-5.0,2.5,-0.5
CC1(C)CC(=O)C2=C(C1)N=c1s/c(=C/c3ccc(F)c(F)c3)c(=O)n1C2c1ccc(F)cc1 (configuration not stated),-10.0,nt,-10.6,0.6,2.8,3.4,-5.8,-1.4
# Later entries.
SMILES,Beta apoptosis,UCH37 DUB inh,T cruzi repl,A1 inh,Calb FLC,Beta2AR agonist,RanGTP-Imp inh,LANA-H2B inh
CCOC(=O)c1c(S(=O)(=O)N2CCc3ccccc32)c(C)n(C)c1C,nt,7.1,11.1,0.6,0.3,7.4,5.6,-3.4
COc1ccc(S(=O)(=O)Nc2cccc(S(=O)(=O)N3CCCCC3)c2)cc1,-2.3,3.8,nt,-1.2,nt,6.5,nt,-2.3
CC(C)(C)NC(=O)Cn1cc(C#N)c2cc(Br)ccc21,0.3,1.5,-7.4,-0.3,-2.6,3.8,?,-5.0
O=C1O/C(=C/C(=O)N2CCOCC2)c2ccccc21,-14.8,2.5,0.8,0.1,?,-0.8,-0.5,0.1
CCSc1nnc(-c2ccccc2NC(C)=O)c(=O)[nH]1,3.5,7.4,-2.4,0.9,0.4,1.2,2.0,-0.2

# An excerpt from above with just Beta apoptosis and A1 inh:
compound,Beta apoptosis,A1 inh
CSC1=NCCN1S(=O)(=O)c1ccc2ccccc2c1,-0.5,1.3
Cc1ccc(Nc2cc(C)nc3c(C)ccc([N+](=O)[O-])c23)cc1,6.9,0.6
